PINK1 modulator – changes PINK1 expression; AID 624263; Potency, µM (titrated, usually from 76.6 µM), for inactives: at the highest dose activation (PINK1 increase), usual class: activators; PINK1 immunofluorescence, high-content cytometry, 24 h; hit rate 0.2% among 410,000; active = well fitted activation curve with a large enough effect; inconclusive = small, poorly fitted or top-dose-only effect; inactive = flat fitted curve, though single readings scatter; cell line not stated here;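 also: potency is read from the fitted curve at half-maximal effect; % of control where 0% means no effect; nearly all actives have a fitted effect of over 65% in size; a mitochondrial uncoupler was the plate control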
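Decision-based qHTS: stable cells, 24 h exposure to five compound concentrations, CCCP as control. Fixed cells stained for PINK1 plus nuclear, mitochondrial and cell markers, cytometer read.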
TRPML1 ag – activates the human TRPML1 channel; Q9GZU1; TRPML1-expressing cells, Ca2+ dye fluorescence, FDSS; host cell line not named in the record; reference of the full effect not given here; activation, % (test concentration not listed); hit rate 0.12% among 410,000; AID 624414; in the data active = activation above about 50%; inconclusive = about 30% to 50%; inactive = below about 30%; also: 0% is about no effect; the text of the record puts the active cut at 80%
Target sequence (Q9GZU1 whole entry, looked up): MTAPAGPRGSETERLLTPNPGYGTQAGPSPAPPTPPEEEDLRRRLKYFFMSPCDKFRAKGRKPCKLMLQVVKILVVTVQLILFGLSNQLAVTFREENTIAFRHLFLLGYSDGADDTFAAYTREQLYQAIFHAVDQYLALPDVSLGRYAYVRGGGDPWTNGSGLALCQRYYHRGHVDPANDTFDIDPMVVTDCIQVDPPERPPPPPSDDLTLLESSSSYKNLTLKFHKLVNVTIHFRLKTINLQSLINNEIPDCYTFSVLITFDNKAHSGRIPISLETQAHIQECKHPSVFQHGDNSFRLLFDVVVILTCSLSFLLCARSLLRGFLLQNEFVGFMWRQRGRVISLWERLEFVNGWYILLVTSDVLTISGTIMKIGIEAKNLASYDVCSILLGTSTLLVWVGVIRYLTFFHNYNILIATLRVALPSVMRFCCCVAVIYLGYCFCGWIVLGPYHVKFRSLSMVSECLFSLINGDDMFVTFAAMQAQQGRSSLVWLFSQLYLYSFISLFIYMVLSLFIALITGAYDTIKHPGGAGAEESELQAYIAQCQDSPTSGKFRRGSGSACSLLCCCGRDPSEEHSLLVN
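Kinetic FDSS Ca2+ read in Tet-induced TRPML1-DL cells (ABD Ca8 dye plus quencher, 45-90 min RT loading): baseline, then compound, then 110 s agonist window; EC80 agonist 54-4 at 4uM final added afterwards for a 110 s antagonist window.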
Active calls of the source: *. Not all compounds are listed, so the mix of outcomes need not match the whole.

| canonical_smiles | PINK1 modulator | TRPML1 ag |
| --- | --- | --- |
| O=C(Nc1ccc(F)c(Cl)c1)C1Cc2ccccc2CN1S(=O)(=O)c1ccc(F)cc1 (stereo not drawn) | 1.8% | -0.4 |
| CCc1ccc(NC(=O)c2ccc(F)c(S(=O)(=O)N3CCN(c4ccc(OC)cc4)CC3)c2)cc1 | 0.0% | 0.9 |
| CCc1ccc(OCC(=O)N(Cc2cccs2)c2ccc(Cl)cc2)cc1 | 25% | 0.2 |
| COCCn1c(=N)c(C(=O)NCC2CCCO2)cc2c(=O)n3ccccc3nc21 (stereo not drawn) | 0.1% | -0.7 |
| c1ccc(N2CCN(c3ncnc4[nH]ncc34)CC2)cc1 | -0.8% | -1.1 |
| Cc1ccc([N+](=O)[O-])cc1S(=O)(=O)N1CCn2cccc2C1c1ccccc1 (stereo not drawn) | 5.2% | 4.9 |
| Cc1c(C(=O)OC2CCCCC2)[nH]c2c1C(=O)CC(c1ccc(F)cc1)C2 (stereo not drawn) | 0.4% | 0.2 |
| Cc1csc2nc(COC(=O)c3cccc(NC(=O)c4cccc(Cl)c4)c3)cc(=O)n12 | -1.3% | 2.8 |
| COc1ccc(C(CNC(=O)c2oc3ccc(C)cc3c2C)N2CCOCC2)cc1 (stereo not drawn) | 0.9% | 1.9 |
| CCN(CC)c1cc(C)c2cc(NC(=O)c3ccccc3Cl)ccc2n1 | 3.8% | 2.0 |
| CN1C(=O)c2ccccc2Sc2ccc(NC(=O)c3ccc(C(F)(F)F)cc3)cc21 | 16% | 1.6 |
| COc1cccc(-c2nc(S(=O)(=O)c3ccccc3)c(NCc3ccccc3)o2)c1 | -0.1% | 1.7 |
| CCn1c(SCC(=O)NCc2ccco2)nnc1-c1cccc(N(C)C)c1 | -0.7% | -1.4 |
| CCOc1ccc(CCNc2ncnc3onc(-c4ccc(Cl)cc4)c23)cc1OCC | 2.1% | 1.6 |
| Cc1ccc(O)c(NC(=O)CCS(=O)(=O)c2nc(-c3cccs3)cc(C(F)(F)F)n2)c1 | 3.3% | -1.0 |
| CCCCNC(=O)c1nn(-c2ccc(C)cc2)c(=O)c2c1c1ccccc1n2C | 9.0% | 0.9 |
| Cc1ccc(SCCNC(=O)CN(c2ccccc2)S(=O)(=O)N(C)C)cc1 | 0.1% | 1.0 |
| Cc1ccc(C)c(N2CCN(C(=O)CCS(=O)(=O)c3ccc4c(c3)CC(=O)N4C)CC2)c1 | -0.7% | -0.5 |
| Cc1ccccc1OCC(=O)OCc1cc(=O)n2ccsc2n1 | 0.1% | 0.6 |
| COc1cc(C2NC(=O)NC(C)=C2C(=O)Nc2cc(C)cc(C)c2)ccc1O (stereo not drawn) | -0.1% | -0.3 |

Part of the list above, reformatted.
Structure: CN1C(=O)c2ccccc2Sc2ccc(NC(=O)c3ccc(C(F)(F)F)cc3)cc21
  PINK1 modulator: 16%; TRPML1 ag: 1.6

Structure: COc1cccc(-c2nc(S(=O)(=O)c3ccccc3)c(NCc3ccccc3)o2)c1
  PINK1 modulator: -0.1%; TRPML1 ag: 1.7

Structure: CCn1c(SCC(=O)NCc2ccco2)nnc1-c1cccc(N(C)C)c1
  PINK1 modulator: -0.7%; TRPML1 ag: -1.4

Structure: CCOc1ccc(CCNc2ncnc3onc(-c4ccc(Cl)cc4)c23)cc1OCC
  PINK1 modulator: 2.1%; TRPML1 ag: 1.6

More results follow.
| canonical_smiles | PINK1 modulator | TRPML1 ag |
| --- | --- | --- |
| Cc1cccc(N2CCN(C(c3ccccc3)c3nnc(-c4ccccc4Cl)o3)CC2)c1C (stereo not drawn) | 0.3% | 0.7 |
| Cc1ccc(C)c(Nc2ncnc3onc(C)c23)c1 | -1.1% | 0.6 |
| CCOc1n[nH]c(-c2ccccc2)n1 | 1.1% | 0.0 |
| O=C(Cn1ccn(-c2ccc(F)cc2)c(=O)c1=O)Nc1ccccc1C(F)(F)F | -0.2% | 1.0 |
| CC(=O)C1=C(c2ccc(Cl)c(Cl)c2)N(C(C)=O)n2c(nnc2C2CCCCC2)S1 | -0.7% | 1.5 |
| COc1cccc(C(=O)Nc2ccccc2C(=O)OCc2cc(=O)n3c4c(sc3n2)CCCC4)c1 | -0.7% | 0.9 |
| COc1cc(/C=C/c2nc(C#N)c(N3CCN(C)CC3)o2)cc(OC)c1OC | 3.3% | 0.0 |
| COC(=O)c1c(C)sc(-c2c(-c3ccc(OC)c(F)c3)[nH]c3c2c(=O)n(C)c(=O)n3C)c1O | 3.1% | 1.4 |
| COc1cccc(-c2nc3c(c(SCC(=O)Nc4cccc(C)c4C)n2)Cc2c(CO)cnc(C)c2O3)c1 | -0.1% | -0.4 |
| O=C(c1ccc2c(c1)N(Cc1cccc(Cl)c1)C(=O)c1ccccc1S2=O)N1CCC(Cc2ccccc2)CC1 (stereo not drawn) | 0.8% | 0.1 |
| COC(=O)c1sccc1S(=O)(=O)N(CC(=O)NCc1ccc(F)cc1)c1ccc(Cl)cc1 | 0.4% | 3.4 |
| Cc1ccc2nc(-c3cccnc3)c(Nc3ccc(C(C)C)cc3)n2c1 | -1.4% | -0.9 |
| Cc1ccccc1-c1nc(CS(=O)(=O)CC(=O)NCCCc2ccccc2)c(C)o1 | 1.0% | 0.0 |
| CCOc1ccccc1NC(=O)c1c(C)cc(C)nc1SCC(=O)c1cccc(OC)c1 | 0.0% | 0.9 |
| CC1CCN(S(=O)(=O)c2cc(C(=O)NCCc3ccccc3)n(C)c2)CC1 | 1.0% | 3.6 |
| COc1cc(OC)cc(C(=O)Nc2cc(-c3nc4cccnc4s3)ccc2C)c1 | 0.2% | 1.6 |
| Cc1ccc(NC(=O)c2c(NC(=O)c3ccccc3Cl)sc3c2CCC3)cc1 | 15% | -0.6 |
| COc1cccc2c1cc1c(=O)n(CC(=O)O)nc(C)n12 | 2.7% | -1.0 |
| COc1ccc(Cl)cc1NC(=O)Cn1c2ncccc2c(=O)n1-c1ccc(C)c(C)c1 | 0.1% | 0.4 |
| Cc1cccc(-n2ncc(C(=O)N3CCc4ccccc4C3)c2C2CCN(C(=O)OC(C)(C)C)CC2)c1 | 0.0% | 0.4 |
| CCc1ccc(N(CC)C(=O)CCn2cnc3onc(-c4ccc(F)cc4)c3c2=O)cc1 | 27% | 1.8 |
| COc1ccc(NC(=O)c2c(NC(=O)C(F)(F)F)sc3c2CCCCC3)cc1 | -1.4% | 0.9 |
| C=C1C=C(C(F)F)n2ncc(C(=O)NCc3ccc(OC)cc3)c2N1 | -0.3% | -0.9 |
| Brc1ccc(Nc2c3c(nc4nncn24)CCC3)cc1 | -1.3% | -0.2 |
| CC(=O)Nc1ccc(-c2nnc(SCC(=O)c3ccc([N+](=O)[O-])cc3)o2)cc1 | 0.5% | 4.2 |
| CCOc1ccccc1NC(=O)Nc1cc(C(=O)NCc2ccc(C)cc2)ccc1N1CCCC1 | 11% | 0.7 |
| Cc1ccccc1OCCn1c(-c2ccc(Cl)cc2)nc2ccccc2c1=O | 1.4% | -0.9 |
| Cc1noc(C)c1S(=O)(=O)N(CC(=O)NCc1ccccc1Cl)c1ccc(C(C)C)cc1 | 2.0% | 0.0 |
| CCc1ccc(NC(=O)Cn2c(=O)n(CCCCC(=O)NCCc3ccccc3)c(=O)c3ccccc32)cc1 | -0.8% | -0.5 |
| Cc1ccc(-c2nnc(SCCC(=O)Nc3ccccc3)n2C)cc1 | 0.8% | -1.0 |
| COc1cccc2c1ncc1c(-c3ccc(C)cc3)nn(-c3ccc(F)cc3)c12 | 0.7% | 0.8 |
| CCOC(=O)c1ccc(NC(=O)CC2C(=O)N(c3cccc(C)c3)C(=O)N2CCOC)cc1 (stereo not drawn) | 1.6% | -0.6 |
| Cc1ccc2[nH]c(CSc3nnc(COc4ccccc4C)n3C)cc(=O)c2c1 | 3.8% | 2.2 |
| Cc1ccc(NC(=O)Cn2c(=O)n(Cc3ccco3)c(=O)c3sc4ccccc4c32)cc1C | 18% | 1.0 |
| CC(C)CC(=O)Nc1ccc2nc(SCC(=O)N3CCOCC3)sc2c1 | 2.2% | 1.9 |
| COc1cc(NC(=O)c2nc3ccccc3nc2C)cc(OC)c1OC | -0.1% | -1.1 |
| COc1ccc(-c2ccc(CCC(=O)O)n2-c2ccc(Cl)cc2C)cc1 | 2.2% | 2.0 |
| Cc1ccc(C(=O)c2cn(Cc3c(F)cccc3Cl)c3nc(C)ccc3c2=O)cc1 | 1.3% | -1.0 |
| CC1=C(C(=O)Nc2cccc(Cl)c2C)C2(CCCCCC2)OC1=O | 0.5% | -0.3 |
| COc1c(N2CCNC(C)C2)c(F)cc2c(=O)c(C(=O)O)cn(C3CC3)c12 (stereo not drawn) | -0.5% | -0.2 |

More records.
Structure	PINK1 modulator	TRPML1 ag
Cc1cccc(OCCSc2nc(-c3cccs3)nc3cc(=O)[nH]n23)c1	0.9%	-1.3
Cc1ccccc1CSc1nc2c(sc3ccccc32)c(=O)n1CCCC(=O)NCCCOC(C)C	0.8%	-0.3
COc1ccc(N2CCN(c3nc4ccc(C(=O)c5ccccc5)cc4n4cnnc34)CC2)cc1	-0.7%	0.4
CCCCNc1ccc(-c2nc(-c3ccncc3)no2)cc1[N+](=O)[O-]	1.5%	-0.1
CCc1ccc(NC(=O)CN2C(=O)c3cccc4cccc2c34)cc1	1.8%	-0.6
CCOC(=O)c1cc(OCc2csc(-c3ccccc3)n2)cc(C(=O)OCC)c1	4.9%	0.5
Cc1cccn2c(=O)cc(COc3cccc(NC(=O)c4ccccc4F)c3)nc12	9.5%	1.1
CCCNC(=O)Cn1c(=O)c2cccn2c2cccnc21	-0.4%	1.3
CCc1ccc(CNC(=O)c2ccc(CSc3nc4ccncc4n3Cc3ccc(OC)cc3)cc2)cc1	0.5%	0.9
COc1cc2c(cc1OC)C(COc1ccccc1OC)N(C(=O)c1ccc(S(=O)(=O)N(C)C)cc1)CC2 (stereo not drawn)	-1.5%	3.4
CC(C)Oc1ccc(C(=O)Nc2ccc3c(c2)CCCN3C(=O)c2cccs2)cc1	1.3%	1.7
Cc1oc(-c2cccc(Cl)c2)nc1CN1CCCC(C(=O)NCc2ccc(F)cc2)C1 (stereo not drawn)	0.2%	0.7
Cc1ccc(Cl)cc1NC(=O)CSc1nc2ccccc2nc1Cc1ccccc1	-13%	-0.2
Cc1ccc(NC(=O)c2oc3c(c2C)-c2[nH]ncc2CC3)c(Cl)c1	-1.6%	1.7
N#CN=c1snc(-c2ccccc2Cl)n1-c1ccccc1Cl	-0.5%	1.0
COc1cccc(CNC(=O)C(=O)NCC(c2ccc3c(c2)OCO3)N2CCOCC2)c1 (stereo not drawn)	-0.4%	0.8
COc1ccccc1NC(=O)C1=C(C)Nc2nc(-c3ccco3)nn2C1c1ccccc1 (stereo not drawn)	0.8%	-0.4
CCOCCn1ccc2c(OCC(=O)Nc3ccc(OC(F)(F)F)cc3)cccc2c1=O	8.1%	-1.0
CCOC(=O)c1c(C)[nH]c(CCC(=O)Nc2c(Cl)cc(OC)cc2OC)c1C	0.1%	4.0
Cc1ccc2[nH]c(=O)c(CN(C(=O)c3cccc(Cl)c3)C(C)(C)C)cc2c1	-2.0%	1.5
CCCC12CN3CC(CCC)(CN(C1)C3c1c[nH]c3ccccc13)C2=O (stereo not drawn)	1.0%	-0.5
CCOc1ccc(NC(=O)Cn2c(=O)n(CC(=O)NCCc3ccccc3)c(=O)c3sccc32)cc1	0.7%	-0.1
Cc1ccc(CSc2nc3cccnc3n2Cc2ccc(C(=O)NCCc3cccs3)cc2)cc1	3.7%	3.4
Cc1ccc(Oc2c(C(F)(F)F)oc3c(CN4CCCCC4C)c(O)ccc3c2=O)cc1 (stereo not drawn)	3.7%	0.7
Cc1ccc(NC(c2nnc(-c3ccccc3)o2)c2ccccc2F)c(Cl)c1 (stereo not drawn)	-0.2%	-0.4
O=C(NCC(c1ccc2c(c1)OCO2)N1CCOCC1)c1ccc(F)cc1 (stereo not drawn)	-1.4%	-0.1
COc1cccc(C2CC(=O)Nc3c2c(=O)n(C)c2nc4ccccc4n32)c1 (stereo not drawn)	0.9%	3.8
COc1ccccc1N1CCN(C(=O)Cn2c(=O)n3nc(-c4cccc(C)c4)nc3c3ccccc32)CC1	3.7%	0.7
Cc1ccc(NC(=O)/C(C#N)=C\c2ccc(-c3ccc(Cl)cc3)o2)c(C)c1	0.2%	0.2
CCOc1ccc(S(=O)(=O)N(CC(=O)Nc2ccc3c(c2)OCO3)c2ccccc2)cc1	5.0%	1.0
COc1ccc(NC(=O)c2c(NC(=O)c3cccc(C)c3)sc3c2CCCC3)cc1	-1.3%	0.6
CCc1cc(C(=O)N2CCN(c3ccccc3)CC2)no1	2.4%	-1.1
O=C(Nc1ccc(Br)cc1F)c1cnn2c1NC(=C1CC1)C=C2C(F)F	-0.2%	-0.7
Cc1cc(C)cc(NC(=O)CSc2nc(-c3ccccc3)c3cc(F)ccc3n2)c1	-0.2%	-0.2
Cc1cccc(-n2ncc3c(Nc4c(C)cc(C)cc4C)ncnc32)c1	8.9%	2.5
CCN(C(=O)NCc1noc2ccccc12)c1cc(C)ccc1C	-0.3%	2.4
CCOC(=O)Cn1c(=O)n(CC2CCCO2)c2nc(-c3ccc(C(C)C)cc3)nc(C(N)=O)c21 (stereo not drawn)	-0.9%	2.4
Cc1ccc(C(=O)NCC(=O)OCC(=O)c2ccc3ccccc3c2)cc1	0.1%	-0.4

Random excerpt: three records from the list.
Structure	PINK1 modulator	TRPML1 ag
CCOC(=O)Cn1c(=O)n(CC2CCCO2)c2nc(-c3ccc(C(C)C)cc3)nc(C(N)=O)c21 (stereo not drawn)	-0.9%	2.4
Cc1ccc(C(=O)NCC(=O)OCC(=O)c2ccc3ccccc3c2)cc1	0.1%	-0.4
CCN(C(=O)NCc1noc2ccccc12)c1cc(C)ccc1C	-0.3%	2.4

From PubChem
